Screening data deposited in PubChem by National Center for Advancing Translational Sciences (NCATS).
TRPML1 inh: blocks the human TRPML1 channel; Q9GZU1; TRPML1-inducible cells, Ca2+ dye fluorescence, FDSS; hits give low values; inhibition of EC80 agonist-evoked calcium signal; activity change, negative = inhibition, % (test concentration not listed); actives 0.02% (n = 390,000); AID 624415; in the data active means activity change below about -50%; inconclusive means about -30% to -50%; inactive means above about -30%;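 also: stimulus is agonist 54-4 at its EC80 concentration; % is scaled to controls: 0 for no effect and ±100 for the full control effect; compound concentration not given in the record; the text of the record puts the active cut at -80%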
Target sequence (Q9GZU1 whole entry, looked up): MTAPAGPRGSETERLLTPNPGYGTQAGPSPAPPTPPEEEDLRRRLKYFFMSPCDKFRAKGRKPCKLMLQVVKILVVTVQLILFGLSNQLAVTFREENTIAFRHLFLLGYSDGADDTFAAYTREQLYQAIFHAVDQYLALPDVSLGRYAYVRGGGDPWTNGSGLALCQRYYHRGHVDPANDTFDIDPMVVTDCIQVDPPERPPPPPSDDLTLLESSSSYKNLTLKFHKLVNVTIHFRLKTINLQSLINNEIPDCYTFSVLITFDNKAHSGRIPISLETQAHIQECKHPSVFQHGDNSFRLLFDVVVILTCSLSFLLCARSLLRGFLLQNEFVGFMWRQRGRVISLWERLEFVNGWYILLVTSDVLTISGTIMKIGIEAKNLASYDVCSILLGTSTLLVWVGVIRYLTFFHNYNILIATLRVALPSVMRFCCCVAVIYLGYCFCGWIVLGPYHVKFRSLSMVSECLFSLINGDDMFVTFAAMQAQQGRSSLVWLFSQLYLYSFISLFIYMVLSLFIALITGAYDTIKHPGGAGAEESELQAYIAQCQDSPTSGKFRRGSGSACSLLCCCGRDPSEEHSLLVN
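Tet-induced TRPML1-DL cells loaded with Ca8 no-wash calcium dye were read kinetically on FDSS. Compound addition was followed by EC80 agonist 54-4 (4 uM final); inhibition was read over 110 s.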
PINK1 modulator: PINK1 expression modulation; PINK1 immunofluorescence, high-content cytometry, 24 h; Potency, µM (titrated, usually from 76.6 µM), inactives show at the highest dose activation (PINK1 increase), most hits filed as activators; actives 0.2% (n = 410,000); active = well fitted activation curve with a large enough effect; inconclusive = small, poorly fitted or top-dose-only effect; inactive = flat fitted curve, though single readings scatter; cell line not stated here;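 also: potency is read from the fitted curve at half-maximal effect; % of control where 0% means no effect; nearly all actives have a fitted effect of over 65% in size; a mitochondrial uncoupler was the plate control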
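Fluorescence from anti-PINK1 antibody, together with nuclear and cell stains, was scanned on a laser-scanning cytometer. Before staining, stable-line cells were incubated 24 hours with compounds at 5 concentrations; primary antibody 12 h at 10 degrees C.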
TRPML1 agonist: human mucolipin-1 channel agonism | Q9GZU1 | TRPML1-expressing cells, Ca2+ dye fluorescence, FDSS; host cell line not named in the record; reference of the full effect not given here | activation, % (concentration not given with the values) | actives 0.12% (n = 410,000) | AID 624414; in the data active = activation above about 50%; inconclusive = about 30% to 50%; inactive = below about 30%; also: 0% is about no effect; the text of the record puts the active cut at 80%
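Kinetic FDSS Ca2+ read in Tet-induced TRPML1-DL cells (ABD Ca8 dye plus quencher, 45-90 min RT loading): baseline, then compound, then 110 s agonist window; EC80 agonist 54-4 at 4uM final added afterwards for a 110 s antagonist window.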
D2 agonist: activates the human D2 dopamine receptor. AID 624465. P14416. actives 0.084% (n = 360,000). activation, % (concentration not given with the values). DiscoveRx PathHunter D2 beta-arrestin, luminescence, 90 min; 100% = 57 uM dopamine signal; in the data active = activation above about 40%; inconclusive = about 15% to 40%; inactive = below about 15%; also: compound concentration not given in the record; the text of the record calls up to 30% inactive
Target sequence (P14416 whole entry, looked up): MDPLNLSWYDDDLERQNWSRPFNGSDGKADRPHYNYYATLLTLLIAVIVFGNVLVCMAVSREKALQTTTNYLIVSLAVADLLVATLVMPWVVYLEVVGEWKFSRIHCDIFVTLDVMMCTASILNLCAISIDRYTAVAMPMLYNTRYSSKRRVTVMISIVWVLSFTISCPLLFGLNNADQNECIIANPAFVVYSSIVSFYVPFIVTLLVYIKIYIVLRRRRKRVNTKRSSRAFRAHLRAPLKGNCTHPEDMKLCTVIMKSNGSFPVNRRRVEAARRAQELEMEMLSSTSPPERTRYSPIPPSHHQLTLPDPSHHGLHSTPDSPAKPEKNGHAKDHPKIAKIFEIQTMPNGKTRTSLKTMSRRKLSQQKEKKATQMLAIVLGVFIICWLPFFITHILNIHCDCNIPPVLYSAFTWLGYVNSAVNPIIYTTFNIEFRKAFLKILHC
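DiscoveRx PathHunter D2 beta-arrestin cells (2,100/well) attached overnight, then compound-stimulated 90 min at 37 C in HBSS/10 mM HEPES/0.1% Tween-20 buffer; beta-galactosidase complementation read by luminescence after 1 h at ambient temperature. Dopamine 57 uM final (EC100) as control.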
CtBP-E1A inh: blocks the CtBP interaction with E1A; AlphaScreen GST-E1A/His-CtBP binding, 1536-well; hits give low values; control for the full effect not named in the record; activity change, % (test concentration not listed); actives 0.49% (n = 340,000); in the data active means activity change below about -65%; inconclusive means about -30% to -65%; inactive means above about -30%; also: % is scaled to controls: 0 for no effect and ±100 for the full control effect; compound concentration not given in the record
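AlphaScreen with 125 nM GST-E1A and 125 nM His-CtBP (5X stocks) in Tris pH 8.0, 300 mM NaCl, BSA, Tween 20, TCEP. Compounds preincubated 2 h at 37 deg C, then glutathione donor/nickel acceptor beads added for 1 h at 37 deg C in dark.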
Six1-Eya2 inh: blocks human Six1 binding to Eya2 | Q15475+O00167 | AlphaScreen GST-Six1/His-Eya2 binding, biochemical; hits give low values; control for the full effect not named in the record | activity change, % (test concentration not listed) | actives 0.56% (n = 360,000) | AID 651725; in the data active = activity change below about -65%; inconclusive = about -30% to -65%; inactive = above about -30%; also: % is scaled to controls: 0 for no effect and ±100 for the full control effect; compound concentration not given in the record
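AlphaScreen luminescence read after one hour at 37 °C in darkness. Pin-transferred compounds met GST-Six1 and His-Eya2 protein (5X stock 250 nM/500 nM) plus glutathione donor and Ni-chelate acceptor beads (5X, 50 ug/mL).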
Starred values were filed as active, the others as inactive; ? = inconclusive; . = not tested or not shown; [ ] = remark or other dose.

SMILES | TRPML1 inh | PINK1 modulator | TRPML1 agonist | D2 agonist | CtBP-E1A inh | Six1-Eya2 inh
COc1cc(C)c(NC(=O)COc2cccc3c2OC(C)(C)C3)cc1OC | -4 | -0.3% | 0.9 | -1.2 | 9 | -3
COc1ccccc1-c1nnc(NC(=O)c2ccc(S(=O)(=O)N(C)C)cc2)o1 | 7 | 2.8% | -0.7 | -1.5 | -2 | -27
Cc1ccc2nc(SCC(=O)N3CCN(C(=O)c4ccco4)CC3)[nH]c2c1 | -8 | 2.2% | -0.4 | -3.5 | 1 | -9
CCC(C)NC(=O)Cn1cccc1C(=O)c1ccccc1 (configuration not stated) | -19 | -1.4% | 1.1 | 0.6 | -3 | 8
O=C(CC1C(=O)NCCN1CC1CCCCC1)NCc1ccc(F)cc1F (configuration not stated) | 8 | -0.2% | -0.2 | -4.1 | -5 | -2
CCOc1cccc(-c2nnc3sc(C4CCCCC4)nn23)c1 | 3 | -2.9% | 2.5 | -4.4 | 0 | -2
O=C(COc1ccc([N+](=O)[O-])cc1)N(Cc1cccs1)C1CCS(=O)(=O)C1 (configuration not stated) | -21 | -0.6% | 0.2 | -1.3 | 0 | 0
CC1(C)CC(CNCCC(c2ccc(F)cc2)c2ccco2)CCO1 (configuration not stated) | 5 | -0.4% | -0.5 | -3.0 | -7 | -12
CC(C)(C)C(=O)Nc1cc2c3c(c1)CCN3C(=O)CC2 | 9 | -0.5% | -0.5 | -1.3 | 10 | 3
Cn1cc(CN2CCC(n3nccc3NC(=O)CCCc3ccccc3)CC2)cn1 | 12 | -0.7% | 0.8 | 2.2 | 5 | 1
OC(c1ccc(Cl)c(F)c1)c1ncc(-c2ccccc2F)[nH]1 (configuration not stated) | . | 3.4% | -1.1 | -2.8 | -6 | -15
O=C1/C(=C/c2cccs2)N=C(c2cccs2)N1Nc1ccccc1 | -23 | -0.7% | 3.7 | -5.3 | -20 | -28
CC(C)c1ccc(C(C(=O)NC2CCCCC2)N(C(=O)c2csnn2)C2CC2)cc1 (configuration not stated) | -5 | 7.2% | -0.7 | 6.4 | -2 | 2
N#CCOC(=O)c1c2c(nc3ccccc13)CCC2 | 9 | -0.3% | 1.6 | -0.1 | 2 | -6
CCOc1ccc(C2CC(=O)c3c([nH]c(C(=O)OCCOc4ccccc4)c3C)C2)cc1 (configuration not stated) | -17 | 6.6% | 1.3 | . | . | .
CCOC(=O)c1cc2c(nc1N)CC(C)(C)OC2 | -5 | 0.7% | 1.2 | -3.2 | 3 | 18
C[C@@H]1CN(C(=O)c2nc3ccc(Cl)cn3c2CN2CCc3sccc3C2)C[C@H](C)O1 | -12 | 2.4% | -0.1 | -1.5 | 9 | 0
Cc1ccc(-c2nnc(Nc3cccc(Cl)c3)c3ccccc23)cc1S(=O)(=O)N1CCOCC1 | 12 | 2.8% | -0.2 | . | . | .
C=CCOc1c(CNC2CCCC2)cc(Cl)cc1OC | 14 | 2.1% | 0.0 | -2.8 | -17 | -15
N#CCSc1n[nH]c2nc3c(c(=O)n12)C1(CCCC1)Cc1ccccc1-3 | 5 | -1.2% | -0.8 | -1.7 | 0 | -2
CCCCCCCCCCC[N+](C)(C)CC/C=C1/c2ccccc2Sc2ccc(Cl)cc21 | -3 | -1.5% | 0.6 | -9.5 | . | -3
O=C(O)c1cc(S(=O)(=O)O)cc(Nc2c3ccccc3nc3ccccc23)c1O | -17 | -0.1% | 0.8 | 2.9 | -15 | -17
O=C(NCc1cc(C(F)(F)F)cc(C(F)(F)F)c1)c1cc(-c2cc(F)ccc2OCC2CCCO2)n[nH]1 (configuration not stated) | . | 3.1% | 0.1 | -2.1 | -10 | -6
COc1ccc2nc(COC(=O)c3cccc([N+](=O)[O-])c3)c(C(C)=O)[n+]([O-])c2c1 | ? | 0.3% | 0.3 | -2.8 | . | -4
COc1ccc2oc(=O)c(-c3csc(Nc4cccc(O)c4)n3)cc2c1 | 4 | -1.2% | 0.8 | 0.7 | 3 | 2
COc1cccc(/C=C/c2nc(C#N)c(NCCc3ccccc3)o2)c1 | 14 | 14% | 2.7 | . | . | .
COc1cc(OC)cc(-c2nc(N)n[nH]2)c1 | 6 | 3.9% | 2.0 | -11 | -18 | -25
CCOc1ccccc1OCCCC(=O)NC1CCCc2ccccc21 (configuration not stated) | 13 | 0.6% | 0.4 | -1.7 | 19 | 1
Cc1cccc(-n2ncc(C#N)c2N)c1 | ? | -0.4% | 1.7 | -0.1 | -3 | 8
O=C(CS(=O)(=O)c1ccccc1)NC1CCCCC1 | -11 | 0.8% | 0.8 | -2.2 | 9 | 20
COc1cccc(NC(=O)CSc2nc3ccc(NC(=O)c4ccco4)cc3s2)c1 | -1 | -0.1% | 0.3 | . | . | .
Cc1ccc(-n2ncc3c(N4CCCCCC4)ncnc32)cc1Cl | -8 | 0.0% | -1.0 | . | . | .
O=C1C=C(c2ccc(-c3ccccc3)c(F)c2)C[C@@H](c2ccc(F)cc2)C1 | 12 | 1.7% | 0.4 | -3.6 | -5 | 3
O=C(NCc1ccc(F)cc1)C1CCCCN1S(=O)(=O)c1ccc(F)cc1 (configuration not stated) | -5 | 2.6% | -0.9 | . | . | .
COc1ccc(CNC(=O)CN2C(=O)CC(c3ccccc3)=Nc3ccccc32)cc1 | -6 | 1.0% | -1.1 | -5.3 | 7 | -2
O=C(NCc1ccc(Cl)nc1)c1csc([C@@H]2C[C@H](O)[C@@H](CO)O2)n1 | . | 0.8% | 0.1 | -4.1 | 2 | 10
O=C(c1cnc2sccn2c1=O)N1CCCc2ccccc21 | 13 | 0.6% | -0.3 | 12 | -18 | -11
O=C(CN(CC1CCCO1)C(=O)CNS(=O)(=O)c1ccc(Cl)cc1)NCc1ccc(F)cc1 (configuration not stated) | 2 | 1.9% | -1.4 | -4.2 | 33 | 5
O=C(Nc1ccc(S(=O)(=O)N2CCOCC2)cc1)c1ccccc1F | 8 | 0.8% | -0.5 | -6.4 | 13 | 3
COc1ccccc1C(N)=S | 2 | -0.8% | 0.8 | -4.4 | 2 | 5
COc1ccc(/C(C)=N/NC(=O)c2ccccc2N)cc1 | 16 | -0.9% | -0.1 | 2.6 | 6 | 3
CCc1ccc(OCC(=O)N2CCN(c3ccccn3)CC2)c(Br)c1 | -4 | -1.5% | 0.0 | -3.5 | 4 | 2
CC(=O)Nc1cnc(-c2ccccc2C(C)=O)cn1 | . | 1.3% | -0.2 | -3.6 | -7 | 1
CSc1cccc(CN2CCN(CCc3ccccc3)C(CCO)C2)c1 (configuration not stated) | 9 | -1.9% | -0.3 | -2.5 | -3 | -11
Cc1nc2c(OCCN3C(=O)c4ccccc4C3=O)cccn2c1N(C)C(=O)CCC1CCCC1 | -13 | 0.2% | -0.2 | -3.7 | 5 | 4
Cc1ccc(OCC(=O)N/N=C\c2cn(C)c3ccccc23)c([N+](=O)[O-])c1 | 25 | 7.2% | 3.3 | 0.4 | 0 | -6
Cc1cc(SCC(=O)Nc2ccccc2)n2ncc(-c3ccccc3)c2n1 | 13 | ? | 3.5 | 2.1 | . | 2
O=c1nc2ccccc2c2n1CC(CN1CCN(c3ccc(F)cc3)CC1)N2 (configuration not stated) | -8 | -1.4% | -0.3 | -3.0 | 6 | 0

Next part, overlapping the part above by 4 compounds.
SMILES | TRPML1 inh | PINK1 modulator | TRPML1 agonist | D2 agonist | CtBP-E1A inh | Six1-Eya2 inh
Cc1nc2c(OCCN3C(=O)c4ccccc4C3=O)cccn2c1N(C)C(=O)CCC1CCCC1 | -13 | 0.2% | -0.2 | -3.7 | 5 | 4
Cc1ccc(OCC(=O)N/N=C\c2cn(C)c3ccccc23)c([N+](=O)[O-])c1 | 25 | 7.2% | 3.3 | 0.4 | 0 | -6
Cc1cc(SCC(=O)Nc2ccccc2)n2ncc(-c3ccccc3)c2n1 | 13 | ? | 3.5 | 2.1 | . | 2
O=c1nc2ccccc2c2n1CC(CN1CCN(c3ccc(F)cc3)CC1)N2 (configuration not stated) | -8 | -1.4% | -0.3 | -3.0 | 6 | 0
O=C(Nc1ccc([N+](=O)[O-])cc1)c1ccc(Cn2cc([N+](=O)[O-])cn2)cc1 | 2 | 3.1% | 1.3 | 0.1 | . | -8
COCC(=O)Nc1ccc(C)c(Cl)c1 | -8 | -0.4% | -0.6 | -2.8 | 1 | 2
COc1cccc(CNCCO)c1OCc1ccc(Cl)cc1 | -1 | 0.7% | 1.0 | -2.3 | -1 | 7
COc1cc(/C=C/c2cccc[n+]2C)ccc1OCC(=O)Nc1ccccc1 | -15 | -1.0% | -0.6 | 0.0 | -1 | 7
CC(=O)c1cc(-c2ccccc2)n(CC(=O)Nc2ccc(C)cc2C)c1C | -15 | 0.8% | 1.5 | . | . | .
O=C(CN(c1ccccc1F)S(=O)(=O)c1ccccc1)NC1CCCCCC1 | -4 | 1.5%[38.3 µM] | 0.9 | -3.3 | 6 | 4
CC(=O)OCC1=C(C(=O)O)N2C(=O)C(NC(=O)c3ccc(COc4c(C)cccc4Cl)o3)C2SC1 (configuration not stated) | -1 | 4.2% | 0.0 | -1.2 | -1 | -11
O=C(CSc1nncs1)NCc1ccc2c(c1)OCO2 | 11 | -0.1% | -0.2 | -2.0 | 0 | 4
N#CC1=C(N)C2=CCCC[C@H]2[C@H](c2ccccc2)C1(C#N)C#N | 1 | 2.5% | 0.8 | -3.8 | -5 | -10
COc1ccc(NC(=O)CCN2CCN(S(=O)(=O)c3cc(Cl)ccc3Cl)CC2)cc1 | 6 | . | 0.0 | 0.2 | 11 | -9
COc1ccccc1CNC(=O)CN(C)S(=O)(=O)c1cccc2cccnc12 | -8 | -0.8% | 0.4 | -0.7 | 2 | -1
O=C(O)C(C/C(=N/O)c1ccc(Br)cc1)P(=O)(c1ccccc1)c1ccccc1 (configuration not stated) | -11 | -1.9% | -0.7 | -1.4 | 0 | 16
CCc1ccc2[nH]c(=O)c(CN(Cc3ccc(F)cc3)C(c3nnnn3CCN3CCOCC3)C(C)C)cc2c1 (configuration not stated) | 0 | 1.9%[38.3 µM] | -0.1 | -3.9 | 7 | -3
FC(F)(F)c1cc(Cl)c2nc(-c3ccco3)c(Cc3ccccc3C(F)(F)F)n2c1 | . | 14% | 0.4 | . | 5 | -8
O=C(NCc1n[nH]c(=S)n1-c1cccc(Cl)c1)c1cccs1 | -15 | -0.5% | 0.5 | 1.9 | 3 | 0
Cc1ccc(S(=O)(=O)NC(CN2CCOCC2)=NCCNS(=O)(=O)c2ccccc2)cc1 | 8 | -0.6% | -0.5 | -3.0 | 7 | 6
CC(=O)Nc1nnc([N+](=O)[O-])s1 | 2 | 3.8% | -0.5 | -9.9 | 1 | -1
COCCN=c1scc(-c2ccccc2)n1/N=C/c1c[nH]c2ccccc12 | 10 | 11% | 1.5 | -4.0 | ? | ?
O=S(=O)(N/N=C\c1ccccc1O)c1ccc(Cl)cc1 | 0 | 2.6% | -0.3 | -0.7 | 5 | 0
